Assay outcomes: PubChem BioAssay, ICCB-Longwood Screening Facility, Harvard Medical School
HCMV NEC inh: cytomegalovirus nuclear egress complex inhibition; HTRF UL50-UL53 interaction, normalized percent inhibition; inhibition, % (concentration not given with the values); 190,000 compounds, 0.15% hits;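 active = both replicates at 50% or more, plus weaker picks with an unusually low signal ratio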;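 also: stock transfer was 100 nL into about 20 µL; 0% = negative control wells and 100% = wells with untagged competitor protein; inactives centre near -12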
Numbers without * were called inactive; & = joins results of further samples. Only part of the results is shown; rates above refer to the full screens.

SMILES	HCMV NEC inh
CCOc1cc(/C=C2/SC(=S)NC2=O)cc(Br)c1O	-50.3
Cc1cc(N2CCOCC2)ccc1Nc1nc(NC2CCCCC2)c2[nH]cnc2n1	9.1
COc1ccc(-c2csc(NC(=O)c3ccc(C#N)cc3)n2)cc1	-11.8
C=CCc1ccccc1OCC(O)CN1CCN(Cc2ccc3c(c2)OCO3)CC1 (centres undefined)	5.7&-9.6
CCc1nc2cc(CC(=O)O)ccc2o1	-14.1
CC1=C(C#N)C(c2ccccc2)C2=C(CC(C)(C)CC2=O)N1 (centres undefined)	-25.5
Cc1ccc(S(=O)(=O)N2CCCC(C(=O)N3CCCc4ccccc43)C2)cc1 (centres undefined)	-6.8
CCN(CC)S(=O)(=O)c1cc(C(=O)Nc2ccccc2C(=O)O)ccc1Br	-29.4
Cc1ccc(CN2C(=O)C3CCCN3c3ncccc32)cc1 (centres undefined)	10.0
CC1(C)C2CCC1(CS(=O)(=O)N1CCN(c3ccccc3F)CC1)C(=O)C2 (centres undefined)	-3.6
CCCCC(=O)N1CC(=O)Nc2ccc(C)cc2C1c1ccccc1 (centres undefined)	-8.2
NS(=O)(=O)c1ccc(-c2cccc(C=C3SC(=O)NC3=O)c2)cc1	-22.9
CC(C)(C)C(=O)OCOP(=O)(COCCn1cnc2c(N)ncnc21)OCOC(=O)C(C)(C)C	6.4&-18.5
O=C(Nc1nnc(SCc2ccccc2)s1)C1CC1	-15.2
CCCCCCCCCCOCCC(=O)O	-6.4
Cc1cc(C)n(C(=O)c2cc(C)[nH]n2)n1	-4.3
COc1ccc(CC2SC(N)=NC2=O)cc1 (centres undefined)	-24.4
Cc1ccc2c(c1)sc(=NC(=O)c1cccc(N3C(=O)CCC3=O)c1)n2C	-6.7
COC(=O)CSc1nnc(-c2c[nH]c3ccccc23)n1C	-0.9
COC(=O)c1sc(-c2ccccc2)cc1NC(=O)c1ccccc1	-9.7
Cn1c(-c2ccccc2)cn2nc[n+](C)c12	-7.3
c1ccc2c(CCc3ccncc3)c[nH]c2c1	-16.0
CCN(C(=O)c1cc2ccccc2oc1=O)c1ccccc1	-13.1
C=CCn1nc(C(=O)N2CCOCC2)c2c1CCC(NCc1ccc(Cl)s1)C2 (centres undefined)	0.2
Cc1ccc(S(=O)(=O)NCl)cc1	-36.1
O=C(NS(=O)(=O)c1ccc(Cl)s1)c1ccccc1	-4.1
CC(C)[C@H](NS(=O)(=O)c1ccc(-c2ccc(Br)cc2)cc1)C(=O)O	-3.8
CN1CCN(C(=O)CCCN2C(=O)/C(=C/c3ccc(Cl)cc3)SC2=S)CC1	-35.7
COc1cc(F)ccc1S(=O)(=O)N1CCCCC1C (centres undefined)	0.6
CC1CCN(c2ncnc3c2cnn3-c2ccccc2)CC1	-8.0
O=C(N/C=N/O)c1ccc(-n2ccnc2)cc1	-11.2
CCCC(=O)NCCc1nc2ccccc2n1C	-16.3
O=C(C1CCCCCC1)N1CCC(n2cc(C3CCCCC3)nn2)CC1	-13.3
COc1ccc(/C=C/C(=O)C2=C(O)c3ccccc3C2=O)cc1	19.4
CCc1nc2ccccc2n1CC(C)C	-2.2
Cc1ccc2nc(-c3cnc(CCC(C)C)nc3)c(C)c(C(=O)N(C)C)c2c1	-26.1
CC(C)n1c(C2CC(=O)N(c3ccccc3)C2)nc2ccccc21 (centres undefined)	9.5&-1.7
OC(CCl)c1ccc(-n2cncn2)cc1 (centres undefined)	1.6
c1coc(CNc2ncnc3nc[nH]c23)c1	-17.8&-10.8
O=C(Nc1ccccc1C(F)(F)F)c1cccn(OCc2ccccc2)c1=O	-7.8
CC(C)n1nc(-c2cc3cc(O)ccc3[nH]2)c2c(N)ncnc21	-10.4
N[C@H](C(=O)O)c1ccc(O)c(C(=O)O)c1	-12.6
O=c1cc(CO)occ1O	-20.9
COC(=O)[C@H]1C2C[C@H]3c4[nH]c5ccccc5c4CCN3C[C@H]2CC[C@@H]1O (some centres undefined)	-16.1
N#CC1=C(SCC(=O)Nc2ccccc2F)NC2=C(C(=O)CCC2)C1c1ccco1 (centres undefined)	-34.7
COC(Cc1nc2ccccc2s1)C(=O)O (centres undefined)	-20.3
CC(=O)Nc1ccc2nc(NC(=O)CCOc3ccccc3)sc2c1	4.1
O=c1ccc2ccc(OCCOc3ccc4ccc(=O)oc4c3)cc2o1	-9.6
CC(=O)N1CCc2c(sc(NC(=O)c3ccc(C#N)cc3)c2C#N)C1	-10.6
COc1ccc2c(c1)sc(=NC(=O)CSCC(=O)N1CCc3ccccc31)n2C	-13.6
CCOC(=O)c1cnn(-c2ccc(Cl)c(Cl)c2)c1N	10.3&-9.3
N#C/C(=C\Nc1ccc(Br)cc1)c1nc(-c2ccccc2)cs1	1.3
OCC1OC(OCCc2ccc(O)cc2)C(O)C(O)C1O (centres undefined)	-6.7
CC1C[C@@H]2[C@@H](C(O)C[C@@]3(C)[C@H]2CC[C@@]3(O)C(=O)CO)[C@@]2(C)C=CC(=O)C=C12 (some centres undefined)	-12.9
CC[C@@H]1NC(=O)[C@H]2CN(CCC(C)C)CCN2C1=O	-7.3
CC(C)[C@H](NC(=O)CNC(=O)OC(C)(C)C)C(=O)N[C@H](C=O)C(C)C	-7.4
CCOC(=O)c1ccc(N2Cc3ccccc3C2=N)cc1	-7.5
CN(Cc1ccccc1)S(=O)(=O)c1ccc(NC(=O)/C=C/c2ccco2)cc1	-10.4
CCOC(=O)c1cc(C)nc(Sc2ccccc2NC(=O)c2cccc(C(F)(F)F)c2)c1C#N	-9.8
Cn1cnnc1SCC(=O)N1CCCCC1	-1.4&-9.3

(more compounds)
SMILES	HCMV NEC inh
O=C(O)C1CSCN1 (centres undefined)	-51.4
Cc1nc(CN(C)C2CCc3c(c(C(=O)N(C)C)nn3CC3CCCCC3)C2)cs1 (centres undefined)	-5.7
Cc1ccc2c(c1)C(=O)CC(c1cc(Br)cc3c1OCOC3)O2 (centres undefined)	1.3
O=C(CSCc1ccco1)Nc1nccs1	-8.9
Brc1ccc(-c2cnc3n2CCCC3)cc1	-22.1
Cc1ccccc1C(=O)c1c[nH]c(C(=O)NCc2ccccc2)c1	-8.6
Cc1cc(C(F)(F)F)n(-c2nc(CCl)cs2)n1	-0.9
NC(=O)CCSc1nnc(SCC(=O)c2ccccc2)s1	-9.0
Cc1cc2cc(CNC(=O)c3cc4ccccc4oc3=O)ccc2n1C	6.4
O=C(NC1CCSC1=O)c1ccccc1 (centres undefined)	-1.3
Cc1cc(C)n(C(=O)c2ccc(NC(=O)C3CC3)cc2)n1	-10.2
CC(N)(C(=O)O)c1cccc(OCc2cccc(Cl)c2)c1 (centres undefined)	-17.0
COc1ccc2c(c1)CC[C@@H]1[C@@H]2CC[C@]2(C)[C@@H](NCCCCCCN3C(=O)C=CC3=O)CC[C@@H]12	-22.3&-22.3&4.9
O=C(c1cccc(S(=O)(=O)N2CCCCC2)c1)N1CCN(c2ccccc2)CC1	0.9
CC1(C)CC(N2COc3c(cc(Cl)c4cccnc34)C2)CC(C)(C)N1	44.9
COc1cc(OC)c(OC)cc1CN1CCN(Cc2ccc(F)cc2)CC1	-9.2
CSc1nc(-c2ccccc2)cn1-c1ccc(NC(C)=O)cc1	-9.1
O=C(O)C1CCCN1S(=O)(=O)c1ccccc1 (centres undefined)	-5.5
COc1cccc2sc(NC(C)=O)nc12	-7.5
CC(C)=CCC/C(C)=C/CC/C(C)=C/CC[C@]1(C)CCc2c(C)c(O)c(C)c(C)c2O1	-10.6&-10.6
Cc1cnc(Nc2ccc(N3CCN(C)CC3)cc2)nc1Nc1cccc(S(=O)(=O)NC(C)(C)C)c1	18.1
CCC(=O)Nc1cccc(-c2nc3ccccc3[nH]2)c1	-2.8
CS(=O)(=O)c1ccc2nc(NC(=O)c3ccccc3Oc3ccccc3)sc2c1	-15.8
C[C@H](NC(=O)c1sccc1OCc1ccc(Cl)cc1)c1ccccc1	6.9
COC1CN(C(=O)Cn2nc(-c3ccccc3)c3ccccc3c2=O)CC(=O)N(Cc2ccccc2)C1 (centres undefined)	-1.6
O=C(/C=C/c1cccs1)Nc1nnc(-c2ccccc2)o1	-1.7
CN(CCc1ccc(Cl)c(Cl)c1)CC(O)COc1ccc(NS(C)(=O)=O)cc1 (centres undefined)	7.5&8.5
COCC(=O)Nc1cc(C)c2c(=O)oc3ccccc3c2n1	-18.8
CC(C)CCOc1cccc(OCC(=O)NCC(=O)O)c1	-21.6
Cc1nc2ccccc2cc1OCc1ccccc1	-5.5
Cn1c(=NC(=O)/C=C/c2cccs2)sc2cc(Cl)ccc21	-13.0
Cc1ccc(C(=O)Nc2cccc(C(F)(F)F)c2)cc1Nc1ccccn1	-15.9
CCCCC/C=C\C/C=C\C/C=C\CCCCCCC(=O)OC	-8.9&-8.9
Oc1ccc(O)c(Cc2nc3ccccc3s2)c1	-14.7
COc1cc(C)c(S(=O)(=O)N2CCN(c3cccc(Cl)c3)CC2)cc1C	-0.3
COc1cc(C2c3cc4c(cc3C(OC3OC5COC(c6cccs6)OC5C(O)C3O)C3COC(=O)[C@H]23)OCO4)cc(OC)c1O (some centres undefined)	2.4
CCN1CCN(Cc2ccc(NC(=O)c3ccc(C)c(NC(=O)c4ccnnc4)c3)cc2C(F)(F)F)CC1	-14.1
O=C(CSc1ncnc2ccccc12)Nc1ccccc1C(F)(F)F	-13.6
N#Cc1cnn2c(-c3ccc(Cl)c(Cl)c3)ccnc12	7.0
COCCn1c(=NC(=O)c2c(F)cccc2F)sc2cc(OC)ccc21	-11.3

Copied from the results shown, two compounds:
SMILES	HCMV NEC inh
N#Cc1cnn2c(-c3ccc(Cl)c(Cl)c3)ccnc12	7.0
COCCn1c(=NC(=O)c2c(F)cccc2F)sc2cc(OC)ccc21	-11.3

(continued)
SMILES	HCMV NEC inh
CCOC(=O)/C=C/[C@H](CC(C)C)NC(=O)[C@H](CO)NC(=O)[C@@H](NC(=O)c1cccc(O)c1C)C(C)C	-30.8&-30.8
COc1cc(C(=O)N2Cc3ccccc3CC2C)cc(OC)c1OC (centres undefined)	3.8
O=C(CSc1nc2c(c(=O)n1-c1ccccc1)SCC2)NCc1ccccc1	-17.6
CCOC(=O)c1sc(NC(=O)COc2ccccc2)c(SC#N)c1C	2.3
CC(=O)n1c(N)nc2ccccc21	-19.1
COc1nc2c(cc1C(=O)N1CCOc3ccccc31)CCC2	-12.9
C=CCn1c(Cc2ccccc2)nc2ccccc21	-16.5
O=C(NCCN1CCN(C(=O)c2cccc(C(F)(F)F)c2)CC1)c1cccc(C(F)(F)F)c1	6.2
CC(=O)NCCSc1c(-c2ccc(C)cc2)[nH]c2ccccc12	-17.5
CN1/C(=C/C(=O)c2ccccc2)Sc2ccccc21	-36.6
O=C(c1ccco1)n1nnc2cc(Cl)ccc21	-0.1
Cc1sc(N2C(=O)C3C4C=CC(C4)C3C2=O)c(C#N)c1C (centres undefined)	-4.1
C=CCc1cccc2cc(C(=O)Nc3cccc(OC)c3)c(=O)oc12	10.1
CC(NC(=O)C(c1ccccc1)c1ccccc1)C(=O)N1CCCCC1 (centres undefined)	-11.2
Nc1ncn(C2O[C@H](CO)[C@@H](O)[C@H]2O)c(=O)n1 (some centres undefined)	-14.9
C=CCNC(=O)c1cc2c(=O)c3ccccc3oc2nc1C(F)(F)F	-6.9
CCSc1nnc(NC(=O)c2ccc(C(=O)c3ccccc3)cc2)s1	-17.0
COC(=O)CSC1=C(C#N)C(c2ccccc2C)C(C#N)C(=O)N1 (centres undefined)	-22.2
CC(C)N1C(=O)CCC1C(=O)NCCC1=CCCCC1 (centres undefined)	-11.4
COCCCNC(=O)c1nn(C)c2c1CN(C(=O)Cc1c(C)[nH]c3c(F)cccc13)CC2	5.7
O=S(=O)(CCc1nc2ccccc2[nH]1)CCc1nc2ccccc2[nH]1	-21.4
COc1ccc2c(Oc3ccc(NC(=O)c4c(C)n(CC(C)(C)O)n(-c5ccccc5)c4=O)nc3)ccnc2c1	14.2
CCc1nnc(NC(=O)c2c(OC)cccc2OC)s1	-6.9
CCCC[C@H](C)C[C@H](O)/C=C/[C@H]1[C@H](O)CC(=O)[C@@H]1CCCC/C=C/C(=O)O	-8.4&-8.4

A section of the results above:
SMILES	HCMV NEC inh
N#Cc1cnn2c(-c3ccc(Cl)c(Cl)c3)ccnc12	7.0
COCCn1c(=NC(=O)c2c(F)cccc2F)sc2cc(OC)ccc21	-11.3
CCOC(=O)/C=C/[C@H](CC(C)C)NC(=O)[C@H](CO)NC(=O)[C@@H](NC(=O)c1cccc(O)c1C)C(C)C	-30.8&-30.8
COc1cc(C(=O)N2Cc3ccccc3CC2C)cc(OC)c1OC (centres undefined)	3.8
O=C(CSc1nc2c(c(=O)n1-c1ccccc1)SCC2)NCc1ccccc1	-17.6
CCOC(=O)c1sc(NC(=O)COc2ccccc2)c(SC#N)c1C	2.3
CC(=O)n1c(N)nc2ccccc21	-19.1
COc1nc2c(cc1C(=O)N1CCOc3ccccc31)CCC2	-12.9
C=CCn1c(Cc2ccccc2)nc2ccccc21	-16.5
O=C(NCCN1CCN(C(=O)c2cccc(C(F)(F)F)c2)CC1)c1cccc(C(F)(F)F)c1	6.2
CC(=O)NCCSc1c(-c2ccc(C)cc2)[nH]c2ccccc12	-17.5
CN1/C(=C/C(=O)c2ccccc2)Sc2ccccc21	-36.6
O=C(c1ccco1)n1nnc2cc(Cl)ccc21	-0.1
Cc1sc(N2C(=O)C3C4C=CC(C4)C3C2=O)c(C#N)c1C (centres undefined)	-4.1
C=CCc1cccc2cc(C(=O)Nc3cccc(OC)c3)c(=O)oc12	10.1
CC(NC(=O)C(c1ccccc1)c1ccccc1)C(=O)N1CCCCC1 (centres undefined)	-11.2
Nc1ncn(C2O[C@H](CO)[C@@H](O)[C@H]2O)c(=O)n1 (some centres undefined)	-14.9
C=CCNC(=O)c1cc2c(=O)c3ccccc3oc2nc1C(F)(F)F	-6.9
CCSc1nnc(NC(=O)c2ccc(C(=O)c3ccccc3)cc2)s1	-17.0
COC(=O)CSC1=C(C#N)C(c2ccccc2C)C(C#N)C(=O)N1 (centres undefined)	-22.2
CC(C)N1C(=O)CCC1C(=O)NCCC1=CCCCC1 (centres undefined)	-11.4
COCCCNC(=O)c1nn(C)c2c1CN(C(=O)Cc1c(C)[nH]c3c(F)cccc13)CC2	5.7
O=S(=O)(CCc1nc2ccccc2[nH]1)CCc1nc2ccccc2[nH]1	-21.4
COc1ccc2c(Oc3ccc(NC(=O)c4c(C)n(CC(C)(C)O)n(-c5ccccc5)c4=O)nc3)ccnc2c1	14.2
CCc1nnc(NC(=O)c2c(OC)cccc2OC)s1	-6.9
